VACV Venus inh = qHTS for Stage-Specific Inhibitors of Vaccinia Orthopoxvirus: Venus Reporter Primary qHTS; Vaccinia virus Venus reporter expression, fluorescence; Potency, µM (highest dose often 36.5 µM), for the others: at the top dose activity change, negative = inhibition, actives largely listed as inhibitors; 0.46% of 330,000 active; AID 720580, 2013; active means well fitted inhibition curve with a large enough effect; inconclusive means small, poorly fitted or top-dose-only effect; inactive means no such curve, though single readings can be large or run the other way; tested in A549 cells; note: nearly all actives have a fitted effect of over 30% in size; inactives centre near -10
Vaccinia mCherry = qHTS for Stage-Specific Inhibitors of Vaccinia Orthopoxvirus: mCherry Reporter Primary qHTS. Potency, µM (series often up to 36.5 µM), for the others: at the top dose activity change, negative = inhibition, usual class: inhibitors. Vaccinia virus mCherry reporter infection, fluorescence; about a quarter of the inactives have no number. 0.63% of 310,000 active. AID 720579, 2013; active = well fitted inhibition curve with a large enough effect; inconclusive = small, poorly fitted or top-dose-only effect; inactive = no such curve, though single readings can be large or run the other way; tested in A549 cells; note: nearly all actives have a fitted effect of over 35% in size; inactives centre near -10
* = called active by the depositor; i = inactive; ? = inconclusive; . = not tested or not shown; & = joins results of further samples. % is set by controls: 0 for no effect and ±100 for the full control effect; potency is the fitted concentration of half-maximal effect.

Order of values – VACV Venus inh	Vaccinia mCherry
- COc1ccc(OC)c(NC(=O)C2CCCN(S(=O)(=O)c3cccc4nsnc34)C2)c1 (configuration not stated)
  -11%	i
- COc1ccc2nc(C)cc(SCC(=O)N/N=C/c3ccccc3)c2c1
  -15%	-24%
- COc1ccc(C2=NS(=O)(=O)N(C)C(C(=O)N3CCC(C)CC3)=C2)cc1
  -2%	i
- Cc1nnc(NC(=O)CSc2nnc(CNC(=O)c3ccccc3)o2)s1
  -4%	-13%
- C/C=C(/C)C(=O)Nc1cccc(C2=NOC3(C2)C[C@@H](C(N)=O)N(C(=O)CC)C3)c1 (some centres not stated)
  -2%	-15%
- O=c1cc(N2CCCCC2)c(-c2ccccc2)nn1Cc1ccc(F)cc1
  0%	?
- CCCC1C(=O)Nc2ccccc2N1C(=O)c1cccc(C)c1 (configuration not stated)
  -21%	i
- NCC1CCC(C(=O)O)CC1 (configuration not stated)
  -4%	-9%
- COC(=O)c1scc(C)c1NC(=O)c1ccccc1F
  -11%	i
- NCCSC1CC(=O)N(c2ccc(Cl)c(Cl)c2)C1=O (configuration not stated)
  -2%	-5%
- Cc1ccc(NC(=O)Nc2ccc3nc(N4CCN(C)CC4)cc(C)c3c2)cc1C
  -22%	-27%
- CCN(CC(=O)NCc1cccs1)C(=O)c1ccc(OC)c(S(=O)(=O)N2CCOCC2)c1
  -9%	i
- COc1ccc(CN2COc3ccc4c(C)cc(=O)oc4c3C2)cc1
  3%	-2%
- CC(=O)C[C@H](O)CC(=O)[C@H]1OC(=O)CCCCCCc2ccccc21
  -5%	i
- Cc1ccc(-c2c(C(=O)N/N=C/c3ccncc3)nnn2-c2nonc2N)cc1
  -14%	-29%
- CCc1ccc(NC(=O)CN(N=Nc2nonc2C)c2nonc2C)cc1
  3%	-10%
- CNC(=O)C12CCC(C)(c3nc4cc(C)c(C)cc4nc31)C2(C)C (configuration not stated)
  -12%	-18%
- CCOc1ccc(CCNC(=O)C2CCN(c3nnc(-n4cccc4)s3)CC2)cc1
  -10%	i
- CN1CCN(c2ncc(CN3C(=O)c4ccccc4C3=O)s2)CC1
  -20%	-5%
- CC(=O)NC1(c2nnnn2CCOC(=O)Nc2ccc(Cl)cc2)CCCC1
  -9%	i
- O=S(=O)(c1ccc(NC(=S)NC2CC2)cc1)N1CCOCC1
  -6%	i
- O=C(Cn1c(=O)n(Cc2ccco2)c(=O)c2cc(Cl)ccc21)NCC1CCCO1 (configuration not stated)
  -4%	.
- O=c1c2c3nc4ccccc4nc3n(/N=C/c3ccccn3)c2ncn1-c1ccccc1
  -23%	-31%
- Cc1cc(C)cc(NC(=O)c2ccc(NC(=O)c3ccco3)cc2)c1
  -23%	-4%
- CCOc1ccc(CCNC(=O)COC(=O)c2nc3nc(C)cc(C)n3n2)cc1OCC
  -12%	-13%
- CCCC(c1nnnn1C(C)(C)C)N1CCN(c2ccccc2)CC1 (configuration not stated)
  -9%	-9%
- CN(C)CCc1c[nH]c2ccc(C[C@H]3COC(=O)N3)cc12
  -9%	-15%
- N#CC1=C(N)Oc2cc(N)ccc2C1C1CCCCC1 (configuration not stated)
  ?	?
- CCOC(=O)C(C)n1nc(-c2ccccc2)c2ccccc2c1=O (configuration not stated)
  -12%	i
- COc1ccc(C=O)c(-c2c(CCO)sc3ccccc23)c1
  1%	0%
- N#CC1=C(N)n2c(s/c(=C\c3cccs3)c2=O)=C(C#N)C1c1cccs1 (configuration not stated)
  7%	i
- Cc1ccc(NC(=O)CCN2CCC(C)CC2)cc1
  1%	i
- O=C(CSc1cccc[n+]1[O-])Nc1ccc(Br)cc1Br
  -5%	-10%
- Nc1nc(CCl)nc(N(c2ccccc2)c2ccccc2)n1
  -36%	?
- CCn1c(SCC(=O)N2CCOCC2)nc(O)cc1=O
  -8%	i
- CC1=Nc2cc(C(=O)NCCc3ccc(Cl)cc3)ccc2Sc2ccc(C)cc21
  ?	?
- C=CCn1c(SCC(=O)NC2CCCCC2)nnc1-c1sc(N)nc1C
  -6%	-10%
- C(=N\N1CCN(c2ccccn2)CC1)/c1ccccn1
  -5%	-13%
- Cc1ccc(N/N=C(\C#N)C(=N)N2CCCCC2)cc1
  -17%	-18%
- S=C(Nc1cccc(Cl)c1)N1CCN(Cc2ccccc2)CC1
  0%	-4%
- Cc1ccc2nc(CCc3ccc(N)cc3)[nH]c2c1
  4%	-9%
- COC12C(COC(N)=O)C3=C(C(=O)C(C)=C(N)C3=O)N1CC1C2N1C (configuration not stated)
  ?	?
- CCOC(=O)c1c(S(=O)(=O)N2CCCC(C(=O)N(C)Cc3ccccc3)C2)c(C)n(C)c1C (configuration not stated)
  0%	-14%
- Cc1cccc(S(=O)(=O)c2cn(Cc3ccccc3)c3cc(N4CCCCC4C)c(F)cc3c2=O)c1 (configuration not stated)
  -20%	-7%
- O=C(CN1C(=O)CC(c2ccccc2)=Nc2ccccc21)Nc1ccc(Br)cc1
  -8%	-11%
- Cc1ccc(C(=O)COC(=O)CNC(=O)Cc2ccccc2)cc1
  -2%	-15%
- COc1ccc([C@@H]2CC(=O)c3c(O)cc(O[C@@H]4OC(CO[C@@H]5OC(C)[C@H](O)[C@H](O)C5O)[C@@H](O)[C@@H](O)C4O)cc3O2)cc1O (some centres not stated)
  -5%	i
- COc1ccccc1NC(=O)Nc1nc(C(N)Cc2ccc(Cl)cc2)cs1 (configuration not stated)
  ?	-20%
- CN(C)S(=O)(=O)c1cccc(NC(=O)COC(=O)c2c[nH]c(=O)[nH]c2=O)c1
  -5%	i
- O=C(CN1C(=O)NC2(CCCC2)C1=O)Nc1ccccc1
  2%	19%
- O=C(c1ccc(OCC2CCCO2)cc1)N1CCN(c2ccccc2)CC1 (configuration not stated)
  -29%	-2%
- O=C(Cc1ccccc1)NCC(=O)OCC(=O)c1ccc(Cl)c([N+](=O)[O-])c1
  0%	-9%
- Cc1ccc(/C([O-])=C(/C(=S)NCCN2CCOCC2)[n+]2ccccc2)cc1[N+](=O)[O-]
  -14%	-18%
- O=C(CSc1ccc2ccccc2c1)Nc1nc2ccccc2[nH]1
  -13%	-17%
- Cc1ccc(CN(CC(=O)N/N=C/c2ccccc2[N+](=O)[O-])S(=O)(=O)c2ccc(C)cc2)cc1
  ?	.
- Cc1nonc1CN(C)C(=O)CC1C(=O)NCCN1Cc1ccccc1F (configuration not stated)
  -12%	-5%
- Cc1ccc(C)c(NC(=O)CSc2n[nH]c(-c3ccncc3)n2)c1
  -8%	.
- CN1/C(=C\C=C2\N=C(c3ccc(F)cc3)OC2=O)C(C)(C)c2ccccc21
  12%	-11%
- CC(=O)c1ccc(OCC(=O)N2CCCC(N(C)Cc3ccccc3)C2)cc1 (configuration not stated)
  -15%	-10%
- Cc1cccc(C)c1NC(=O)CNC(=O)C12CC3CC(CC(O)(C3)C1)C2
  -8%	-21%

Brought forward from above: 7 compounds, then new ones.
Order of values – VACV Venus inh	Vaccinia mCherry
- O=C(CSc1ccc2ccccc2c1)Nc1nc2ccccc2[nH]1
  -13%	-17%
- Cc1ccc(CN(CC(=O)N/N=C/c2ccccc2[N+](=O)[O-])S(=O)(=O)c2ccc(C)cc2)cc1
  ?	.
- Cc1nonc1CN(C)C(=O)CC1C(=O)NCCN1Cc1ccccc1F (configuration not stated)
  -12%	-5%
- Cc1ccc(C)c(NC(=O)CSc2n[nH]c(-c3ccncc3)n2)c1
  -8%	.
- CN1/C(=C\C=C2\N=C(c3ccc(F)cc3)OC2=O)C(C)(C)c2ccccc21
  12%	-11%
- CC(=O)c1ccc(OCC(=O)N2CCCC(N(C)Cc3ccccc3)C2)cc1 (configuration not stated)
  -15%	-10%
- Cc1cccc(C)c1NC(=O)CNC(=O)C12CC3CC(CC(O)(C3)C1)C2
  -8%	-21%
- COc1ccc(OC)c(S(=O)(=O)Nc2ccc3[nH]c(=O)[nH]c3c2)c1
  -23%	-28%
- COc1cccc(C(=O)Nc2c3c(nn2-c2ccc(Cl)cc2)CS(=O)(=O)C3)c1OC
  -7%	-6%
- CCn1c2ccc(F)cc2c2nnc(SCCN3CCCCC3)nc21
  -21%&-23%	-4%
- Oc1ccc2c3c1O[C@H]1c4[nH]c5ccccc5c4C[C@@]4(O)[C@@H](C2)N(CC2CC2)CC[C@]314
  -25%	-9%
- Cc1c(N=C2SCC(=O)N2/N=C\c2ccc(Br)cc2)c(=O)n(-c2ccccc2)n1C
  7%	-15%
- O=C(O)CCCn1cc(NC(=O)c2c(F)cccc2F)cn1
  1%	-1%
- CCC(C)n1c(O)c(C(c2ccccn2)c2c(O)n(C(C)CC)c(=S)[nH]c2=O)c(=O)[nH]c1=S (configuration not stated)
  -6%	-13%
- CC(=O)Nc1ccc(C(=O)OCC(=O)Nc2ccccc2Sc2ccccc2)cc1
  9%	i
- CCCCC(=O)Nc1cc(C)c2c(=O)oc3ccccc3c2n1
  -1%	-6%
- CC1(C)CC(=O)C(C=NC(CCC(N)=O)C(=O)O)=C(O)C1 (configuration not stated)
  -4%	i
- COc1ccc(NC(=O)CSc2nc3ccccc3n2CC(=O)N2CCCC(C)C2)cc1 (configuration not stated)
  -5%	-12%
- CCN1CCN(CCC(=O)Nc2ccccc2OC)CC1
  0%	-5%
- COc1ccc(C(=O)Sc2ccc(C)cc2)cc1OC
  -20%	-25%
- CCN(CC)c1ccc(CNc2ccc3c(c2)ncn3C(C)(C)C)cc1
  -16%	?
- Cc1nn(-c2ccccc2)c2[nH]c(=O)c(CNc3ccc(N4CCOCC4)cc3)cc12
  7%	-1%
- C=CCN(CC=C)C(=S)NC(=O)/C=C/c1ccc(OC)cc1
  -13%	-13%
- Cc1ccc(NC(=O)c2cccs2)cc1S(=O)(=O)N(C)C
  -3%	-2%
- CC(C)COC(=O)N1Cc2ccccc2-n2nncc2C1
  -22%	-3%
- O=[N+]([O-])c1ccc(COc2ccc(-c3[nH]ncc3-c3ccccc3)c(O)c2)cc1
  ?	-23%
- CCOc1ccc(N2C(=O)CC(Sc3nccc(C)n3)C2=O)cc1 (configuration not stated)
  -1%	-4%

Rewritten bar-delimited: two of the compounds above.
mol | VACV Venus inh | Vaccinia mCherry
COc1ccccc1NC(=O)Nc1nc(C(N)Cc2ccc(Cl)cc2)cs1 (configuration not stated) | ? | -20%
CN(C)S(=O)(=O)c1cccc(NC(=O)COC(=O)c2c[nH]c(=O)[nH]c2=O)c1 | -5% | i

Going on with the list.
Order of values – VACV Venus inh	Vaccinia mCherry
- COc1ccc(N2CCN(S(=O)(=O)c3c(C)nc4scc(C)n4c3=O)CC2)cc1
  -23%&-11%	-19%&-6%
- CC12CNCC(C)(CN(C(c3ccccc3)c3ccccc3)C1)C2
  -27%	.
- CCOC(=O)C1CCN(C(=O)COC(=O)c2ccccc2C(=O)c2ccc(Cl)cc2)CC1
  -17%	-15%
- CN(C)S(=O)(=O)N1CCC(Oc2cccc(C(=O)NC3CCOC3)c2)CC1 (configuration not stated)
  -12%	i
- COc1ccc(C(=O)NC(=S)NCCc2ccccc2)cc1
  -10%	i
- O=C1C2CC3N1CCC31c3ccccc3-n3c1c2ccc3=O (configuration not stated)
  -2%	i
- CCCC[n+]1c(C)ccc2ccccc21
  -9%	-14%
- CCN(C(=O)CN1CCOCC1)c1c(N)n(Cc2ccccc2)c(=O)[nH]c1=O
  -7%	i
- Cc1ccc(CNC(=O)[C@H](C)N2C(=O)N3CCc4c([nH]c5ccccc45)[C@@]3(C)C2=O)cc1
  -6%	-2%
- COc1ccc(C(=O)Nc2nnc(Cc3ccc(OC)c(OC)c3)s2)c(OC)c1
  -26%	-5%
- COc1ccc(NC(=O)c2cc(C3CCCCN3C(=O)c3cc(C(C)(C)C)nn3C)on2)c(C)c1 (configuration not stated)
  -17%	-9%
- CCOCCCNC(=O)c1c(NC(=O)c2cc(=O)c3ccccc3o2)sc2c1CCC2
  -14%	i
- O=C(c1ccccc1Cl)n1nc(-c2cccnc2)nc1NCc1ccc(F)cc1
  2%	-15%
- COc1ccc(CCNC(=O)CCn2c(=O)c3cccn3c3cccnc32)cc1OC
  -11%&-9%	-2%&-11%
- O=C(N/N=C/c1c(O)n(Cc2ccccc2)c(=O)[nH]c1=O)c1ccncc1
  -7%	-1%
- C/C=C/C=C\C(=O)Nc1cccc(C2=NOC3(C2)C[C@@H](C(N)=O)N(C(=O)c2cc([N+](=O)[O-])cc([N+](=O)[O-])c2)C3)c1 (some centres not stated)
  -22%	-25%
- COCCNC(=O)COC(=O)c1cccnc1SC
  -6%	i
- CC(C1CC2CCC1C2)N1CC(O)=C(c2nc3ccccc3[nH]2)C1=N (configuration not stated)
  5µM*	7.1µM*
- CC1CC(Nc2ccccc2)c2ccccc2N1C(=O)c1ccncc1 (configuration not stated)
  -13%	-8%
- CC(NC(=O)c1ccc(N(C)C)cc1)C1CC2CCC1C2 (configuration not stated)
  -14%	-1%
- COc1ccc(F)c(CN2CCOc3ccc(CN4CCC(O)(c5cccnc5)CC4)cc3C2)c1
  -8%	-20%
- CCCn1c(C)cs/c1=N\C(=S)Nc1ccccc1
  -21%	0%
- COc1ccc(Cl)cc1NC(=O)CC1CCCC1
  -9%	0%
- COCCN1Cc2c(sc(C)c2C)N(C(=O)c2ccccc2)C1
  0%	i
- CCOc1ccccc1NC(=O)c1cccc2c1C(=O)N(CCOC)C2
  -23%	i
- Cc1cc(=O)[nH]c(=S)n1-c1ccccc1
  -8%	-13%
- Cc1ccc(CNC(=O)CN2Cc3ccccc3C2=O)cc1
  -6%	-4%
